DUX4 inh – inhibitors of DUX4-driven ZSCAN4 reporter expression, primary screen, 293T cells, Gaussia and Italica luciferase; 293T-iDUX4 ZSCAN4-Gaussia luciferase reporter, 24 h; active compounds read low; activity change, negative = inhibition, % (no concentration beside the values); hit rate 0.8% among 37,000; AID 1224904, 2016;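 active = -10% or lower and over 25 points stronger than a control reporter; inconclusive = -10% or lower with a smaller gap; inactive = above -10%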;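 note: 0% = median of neutral control wells and -100% = median of positive control wells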
DUX4 inh difference – recorded beside DUX4 inh, whose call it bears; Gaussia minus Italica difference, %; measured here: selective DUX4 reporter inhibition;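 worked out from the two reporters; negative = selective loss of the DUX4 reporter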
DUX4 inh control – also measured in DUX4 inh; calls as there; activity change, negative = inhibition, %; measured here: Italica tet-on control reporter;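 0 = neutral control and -100 = positive control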
The depositor's hits bear a star; ? = inconclusive; · = no result given.

Results follow in this order: DUX4 inh, DUX4 inh difference, DUX4 inh control
COc1ccc(NC(=O)Nc2ccc3c(c2)[C@@H]2C[C@@H](CC(=O)N4CCN(C)CC4)O[C@H](CO)[C@@H]2O3)cc1
    9, 3, 5.8
CCC(=O)N1[C@@H](CO)[C@@H](c2ccccc2)C12CN(C(=O)c1cnccn1)C2
    5, 3, 2.4
CCCNC(=O)N(C)C[C@H]1Oc2cc(C#C[C@H](C)O)ccc2S(=O)(=O)N([C@H](C)CO)C[C@H]1C
    -5, -3, -1.2
O=C(C[C@H]1C=C[C@H](NC(=O)c2cnccn2)[C@@H](CO)O1)NCc1ccccc1F
    1, -2, 2.8
COCC(=O)N1[C@@H](C#N)[C@@H](c2ccccc2-c2ccccc2F)[C@@H]1CO
    10, 7, 2.7
CO[C@@H]1CN(C)C(=O)c2cc(NC(=O)Nc3ccccc3Cl)ccc2OC[C@@H](C)N(Cc2ccccc2C(=O)O)C[C@H]1C
    0, -1, 0.4
COCC(=O)Nc1ccc2c(c1)C(=O)N(C)[C@@H]1CC[C@@H](CC(=O)NCC(F)(F)F)O[C@@H]1CO2
    4, 0, 4.2
CC(C)NC(=O)N1CCCCN2[C@@H](CO)[C@H](c3ccc(Br)cc3)[C@@H]2C1
    7, 3, 4.2
O=C(Cc1cccnc1)N1CC[C@@H]2[C@@H](CO)Nc3ccc(C#Cc4ccccc4F)cc3[C@@H]21
    10, -2, 13
Cc1ccc(S(=O)(=O)Nc2ccc3c(c2)C(=O)N([C@@H](C)CO)C[C@H](C)[C@@H](CN(C)C(=O)NC2CCCCC2)OCCCC[C@H](C)O3)cc1
    1, 2, -0.8

Results follow in this order: DUX4 inh, DUX4 inh difference, DUX4 inh control
CCCN1[C@@H]2c3ccc(-c4ccccc4F)c(=O)n3C[C@@H]2[C@@H](CO)[C@@H]1C(=O)N1CCCCC1
    0, 2, -2.1
CN1C(=O)c2cc(NS(=O)(=O)c3ccccc3F)ccc2OC[C@H]2O[C@@H](CC(=O)NC3Cc4ccccc4C3)CC[C@H]21
    -6, -5, -0.7
O=C(c1ccccc1F)N1CC[C@@H]2[C@@H](CO)Nc3ccc(C#Cc4ccccc4F)cc3[C@@H]21
    -3, -1, -2.2
CCCC(O)C#Cc1cnc2c(c1)C(=O)N([C@H](C)CO)C[C@H](C)[C@H](CN(C)C(=O)Nc1c(C)noc1C)O2 (stereo partly specified)
    -1, 0, -1.1
COCC#Cc1ccc([C@@H]2[C@@H](CO)N3C(=O)CN(C(=O)C4CCCCC4)C[C@H]23)cc1
    3, -4, 6.9
COCC(=O)N1C[C@H]2[C@@H](c3ccccc31)[C@H](CO)N2Cc1cc(F)ccc1F
    2, 2, -0.3
CC(C)NC(=O)Nc1ccc2c(c1)C(=O)N([C@H](C)CO)C[C@@H](C)[C@H](CN(C)C(=O)C1CCCCC1)OCCCC[C@H](C)O2
    0, 0, 0.3
Cc1ccc(-c2ccc([C@@H]3[C@H](CO)N4CCCCN(C)C[C@@H]34)cc2)cc1
    -1, -8, 6.7
COc1cccc(NC(=O)N2CC(=O)N3[C@H](C2)[C@H](c2ccc(C#CCC4CCCC4)cc2)[C@@H]3CO)c1
    10, 5, 5.6
N#C[C@@H]1N[C@@H](CO)[C@@H]1c1ccc(C#CC2CCCCC2)cc1
    -1, 0, -0.9

Results follow in this order: DUX4 inh, DUX4 inh difference, DUX4 inh control
O=C1CN(S(=O)(=O)c2ccccc2)C[C@H]2[C@@H](c3ccc(C4=CCCC4)cc3)[C@H](CO)N12
    3, -5, 7.3
CCCNC(=O)N1C[C@H](O)COC[C@@H]2O[C@H](CC(=O)N[C@@H]3CCN(Cc4ccccc4)C3)CC[C@H]21
    0, -5, 4.8
C[C@@H]1CN([C@@H](C)CO)C(=O)c2ccccc2-c2ccccc2CO[C@@H]1CN(C)Cc1ccc(O)cc1
    0, -18, 18
CC(=O)N1[C@H](CN(C(=O)c2ccccc2)C(C)C)[C@H](c2ccccc2)[C@@H]1CO
    -4, -6, 1.9
CCC(=O)N1CC(=O)N2[C@@H](CO)[C@H](c3ccc(C#CC4CCCCC4)cc3)[C@@H]2C1
    -2, -11, 8.8
COc1ccc(-c2ccccc2[C@H]2[C@@H](C#N)N(C(=O)C3CCOCC3)[C@H]2CO)cc1
    12, 11, 0.3
O=C(C[C@H]1CC[C@@H]2NC[C@@H](O)COC[C@H]2O1)NC1Cc2ccccc2C1
    2, -3, 4.9
CCC(=O)N[C@@H]1CC[C@H](CCNC(=O)Nc2ccc(F)cc2)O[C@H]1CO
    -1, -3, 1.5
COc1ccc(C#Cc2ccc([C@H]3[C@@H](CO)N4CCCCN(S(=O)(=O)c5cn(C)cn5)C[C@@H]34)cc2)cc1
    ?, ·, ·
C[C@@H]1CN([C@@H](C)CO)C(=O)c2cc(C3=CCCC3)cnc2O[C@H]1CN(C)Cc1cccc(F)c1
    -3, -2, -0.4

Results follow in this order: DUX4 inh, DUX4 inh difference, DUX4 inh control
CO[C@H](CN(C)C(=O)c1cnccn1)[C@H](C)CN([C@@H](C)CO)S(=O)(=O)c1ccc(F)cc1
    1, -2, 3.0
C[C@H](CO)N1C[C@H](C)[C@H](CN(C)C(=O)Nc2ccc3c(c2)OCO3)Oc2ncc(C#CC3(O)CCCC3)cc2C1=O
    -2, -3, 0.6
O=C(NCc1ccccc1F)[C@H]1N[C@H]2c3ccc(-c4ccccc4F)c(=O)n3C[C@H]2[C@@H]1CO
    -5, -7, 1.4
COCC(=O)N1CC(=O)N2[C@H](CO)[C@H](c3ccc(C#Cc4cccc(OC)c4)cc3)[C@H]2C1
    -3, -4, 0.7
CCCNC(=O)N1CC[C@@H]2[C@@H](CO)N(C)c3ccc(-c4ccc(F)cc4)cc3[C@@H]21
    ?, ·, ·
COCCNC(=O)C[C@H]1C[C@@H]2c3cc(NC(=O)c4ccc5c(c4)OCO5)ccc3O[C@@H]2[C@H](CO)O1
    1, -3, 3.4
CNC[C@H]1OCCCC[C@H](C)Oc2ccc(NS(=O)(=O)c3cn(C)cn3)cc2C(=O)N([C@@H](C)CO)C[C@H]1C
    5, 6, -0.7
Cc1ccccc1-c1ccc([C@@H]2[C@@H](CO)N3C(=O)CN(S(C)(=O)=O)C[C@H]23)cc1
    4, 3, 1.1
Cc1ccccc1-c1ccc([C@H]2[C@H](CO)N3C(=O)CN(C(=O)c4ccc(F)cc4)C[C@@H]23)cc1
    2, -4, 6.1
C[C@@H]1CN([C@H](C)CO)C(=O)CCCn2nncc2CO[C@H]1CN(C)C(=O)c1cc(-c2ccccc2)on1
    1, -1, 2.3

Results follow in this order: DUX4 inh, DUX4 inh difference, DUX4 inh control
COc1cccc(NC(=O)N2C[C@@H](O)COC[C@H]3O[C@@H](CC(=O)NCc4ccccc4F)CC[C@@H]32)c1
    -7, -2, -4.9
COc1cccc(NC(=O)N[C@H]2C=C[C@@H](CC(=O)N3CCOCC3)O[C@@H]2CO)c1
    1, 4, -2.9
CN1C(=O)c2cc(NC(=O)C3CCOCC3)ccc2OC[C@H]2O[C@@H](CC(=O)NCCc3ccncc3)CC[C@H]21
    -2, -1, -0.8
CCN(C[C@H]1[C@H](c2ccccc2)[C@@H](CO)N1C(C)=O)C(=O)c1ccccn1
    -5, -6, 1.0
Cc1cccc(-c2ccc([C@@H]3[C@@H](CO)N4C(=O)CN(C(=O)c5cnccn5)C[C@H]34)cc2)c1
    4, 5, -0.6
CS(=O)(=O)N1[C@@H](C#N)[C@@H](c2ccc(C#Cc3cccc(F)c3)cc2)[C@@H]1CO
    0, 2, -1.9
COc1ccc(NC(=O)N2C[C@H](O)COC[C@@H]3O[C@@H](CC(=O)N4CCCCC4)CC[C@H]32)cc1
    0, -1, 0.5
C[C@@H]1CC(=O)NCC/C=C\C[C@H](c2ccc3c(c2)OCO3)NC1=O
    4, 6, -1.9
Cc1ccc(S(=O)(=O)N2CC[C@H]3[C@H](CO)Nc4ccc(C#Cc5ccc(F)cc5)cc4[C@H]32)cc1
    ?, ·, ·
CCNC(=O)C[C@H]1CC[C@H]2[C@@H](COC[C@@H](O)CN2C(=O)Nc2c(C)noc2C)O1
    11, 1, 10

Results follow in this order: DUX4 inh, DUX4 inh difference, DUX4 inh control
O=C(N[C@@H]1CC[C@@H](CCNS(=O)(=O)c2ccc(F)cc2)O[C@@H]1CO)C1CCC1
    4, 0, 4.2
COCC#Cc1ccc2c(c1)O[C@@H](CN(C)Cc1ccc3c(c1)OCO3)[C@H](C)CN([C@@H](C)CO)S2(=O)=O
    -2, -1, -1.2
COc1ccc(C#Cc2ccc([C@H]3[C@H]4CN(C(=O)c5ccc(F)cc5)CC(=O)N4[C@H]3CO)cc2)cc1
    ?, ·, ·
C[C@@H](NC(=O)C[C@@H]1C[C@@H]2c3cc(NC(=O)c4cccnc4)ccc3O[C@@H]2[C@H](CO)O1)c1ccccc1
    6, 5, 1.4
Cc1ccc(S(=O)(=O)N[C@H]2CC[C@@H](CC(=O)NCc3ccncn3)O[C@H]2CO)cc1
    -3, -2, -1.5
COc1cccc(NC(=O)N2CC(=O)N3[C@H](C2)[C@H](c2ccc(C4=CCCCC4)cc2)[C@@H]3CO)c1
    -4, 4, -7.4
COc1ccc(OC(=O)N(C)C[C@@H]2OCc3ccccc3-c3ccccc3C(=O)N([C@H](C)CO)C[C@H]2C)cc1
    13, 7, 5.4
CCNC(=O)[C@@H]1[C@@H](CO)[C@@H]2Cn3c(ccc(C4=CCCCC4)c3=O)[C@@H]2N1C(=O)CC1CC1
    2, 0, 2.3
COCC#Cc1cnc2c(c1)C(=O)N([C@H](C)CO)C[C@@H](C)[C@@H](CN(C)Cc1ccc(-c3ccccc3)cc1)O2
    3, 4, -1.0
CN1CCN(C(=O)C[C@@H]2C[C@H]3c4cc(NC(=O)c5ccc6c(c5)OCO6)ccc4O[C@H]3[C@@H](CO)O2)CC1
    -3, -4, 0.7

Results follow in this order: DUX4 inh, DUX4 inh difference, DUX4 inh control
COCC(=O)N1[C@H](CO)[C@H]2c3ccccc3NC[C@H]21
    1, 2, -1.4
C[C@H](CO)N1C[C@H](C)[C@H](CN(C)C(=O)Nc2ccc3c(c2)OCO3)OCCCC[C@H](C)Oc2ccc(NC(=O)Nc3ccc(C(F)(F)F)cc3)cc2C1=O
    2, -3, 5.1
Cc1noc(C)c1S(=O)(=O)Nc1ccc2c(c1)C(=O)N([C@H](C)CO)C[C@H](C)[C@H](CN(C)C(=O)c1ccncc1)OCCCC[C@H](C)O2
    -1, -4, 2.3
CC(=O)N1[C@H](CO)[C@H](c2ccc(-c3ccccc3F)cc2)[C@@H]1CNC(C)C
    -1, 0, -1.5
CO[C@H](CN(C)S(=O)(=O)c1cn(C)cn1)[C@H](C)CN(C(=O)Nc1ccc(C(F)(F)F)cc1)[C@@H](C)CO
    2, -1, 3.0
COc1ccc2c3c(n(C)c2c1)[C@@H](CO)N(C(=O)c1cccnc1)CC31CN(S(C)(=O)=O)C1
    7, 8, -0.3
CCN1[C@@H]2c3ccc(C4=CCCC4)c(=O)n3C[C@@H]2[C@@H](CO)[C@@H]1C(=O)N(C)C
    6, 0, 6.0
N#C[C@H]1[C@@H](c2ccccc2-c2ccc(F)cc2)[C@@H](CO)N1C(=O)NC1CCCCC1
    ?, ·, ·
O=C(NC1CCCC1)N1CCCCN2[C@H](CO)[C@@H](c3ccc(-c4ccccc4)cc3)[C@H]2C1
    -4, -6, 2.1
CN(C)C(=O)c1ccc(-c2ccc([C@H]3[C@@H](C#N)N(C(=O)C4CCC4)[C@@H]3CO)cc2)cc1
    -5, -4, -1.1

Entries from the list above with a cyano group (6):
Results follow in this order: DUX4 inh, DUX4 inh difference, DUX4 inh control
COCC(=O)N1[C@@H](C#N)[C@@H](c2ccccc2-c2ccccc2F)[C@@H]1CO
    10, 7, 2.7
N#C[C@@H]1N[C@@H](CO)[C@@H]1c1ccc(C#CC2CCCCC2)cc1
    -1, 0, -0.9
COc1ccc(-c2ccccc2[C@H]2[C@@H](C#N)N(C(=O)C3CCOCC3)[C@H]2CO)cc1
    12, 11, 0.3
CS(=O)(=O)N1[C@@H](C#N)[C@@H](c2ccc(C#Cc3cccc(F)c3)cc2)[C@@H]1CO
    0, 2, -1.9
N#C[C@H]1[C@@H](c2ccccc2-c2ccc(F)cc2)[C@@H](CO)N1C(=O)NC1CCCCC1
    ?, ·, ·
CN(C)C(=O)c1ccc(-c2ccc([C@H]3[C@@H](C#N)N(C(=O)C4CCC4)[C@@H]3CO)cc2)cc1
    -5, -4, -1.1

The listing continues:
Results follow in this order: DUX4 inh, DUX4 inh difference, DUX4 inh control
C/C=C/c1cnc2c(c1)C(=O)N([C@@H](C)CO)C[C@H](C)[C@@H](CN(C)S(=O)(=O)c1ccc(OC)cc1)O2
    2, -1, 2.9
CN(C)CC(=O)N1CC2(C1)[C@@H](c1ccccc1)[C@@H](CO)N2C(=O)C1CCC1
    12, 2, 11
CN1CCN(C(=O)C[C@@H]2C=C[C@H](NC(=O)Nc3ccccc3F)[C@@H](CO)O2)CC1
    5, 5, -0.8
CN(C)Cc1cn(CC[C@@H]2CC[C@@H](NC(=O)Cc3cccnc3)[C@@H](CO)O2)nn1
    -5, -4, -1.4
CS(=O)(=O)N1CC2(C1)[C@H](c1ccccc1)[C@H](CO)N2Cc1ccccn1
    13, 7, 5.9
Cc1ccc(S(=O)(=O)N2CC[C@H]3[C@H](CO)Nc4ccc(-c5cccc(C(=O)N(C)C)c5)cc4[C@H]32)cc1
    ?, ·, ·
CN(C)CC(=O)N1[C@H](CO)[C@@H](c2ccccc2)C12CN(C(=O)c1cccc(F)c1)C2
    12, 5, 7.4
CCNC(=O)[C@@H]1[C@@H](CO)[C@@H]2Cn3c(ccc(C4=CCCCC4)c3=O)[C@H]1N2CC
    -2, -4, 1.4
C[C@H](CO)N1C[C@H](C)[C@@H](CN(C)Cc2ccc(C(F)(F)F)cc2)OCCCC[C@H](C)Oc2ccc(NC(=O)c3ccccc3)cc2C1=O
    -3, 0, -2.9

High-throughput results as filed in PubChem BioAssay.

These rows are one share of the data; rates above refer to the full screens.
